# Biofilm kill mix = mixture kills Candida albicans biofilm cells. C. albicans biofilm persisters + clotrimazole, fluorescence viability; primary screen in compound mixtures of four per well. inhibition, % at 7.6 µM. actives 0.02% (n = 120,000);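 active means inhibition above 30.3% in the primary screen of four-compound pools, then above 30% when the compound was retested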;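 further: compounds exposed to preformed 24 h biofilms for 48 h; the number belongs to the whole pool; some results filed as inactive read as strong as hits; inactives centre near 12; 0% = biofilm with clotrimazole alone and 100% = kill control; retested singly at about 60 µM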
#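 System: C. albicans CAF4-2 wild-type biofilms; Medium: RPMI/MOPS medium, pH 7.0; Reagent: Clotrimazole, 50 µg/mL; Times: biofilm formation 24 h, compound exposure 48 h, 37 °C; Detection: 2-h Alamar Blue fluorescence, 535/590 nm excitation/emission; Evaluation: percent inhibition of biofilm viability.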
# Starred values were filed as active, the others as inactive. Not all compounds are listed (hit frequency here may not be typical).
# Preview (four entries):
smiles | Biofilm kill mix
C/C(N)=C(/C#N)C(=O)COC(=O)c1cc2c(s1)CCC(C)C2 (stereo unspecified) | 11
CC1(C)NC(=O)N(CCCCOc2ccccc2[N+](=O)[O-])C1=O | 7
CC1CCc2c(C(=O)OCC(=O)Nc3cccc(S(=O)(=O)N4CCCCCC4)c3)csc2C1 (stereo unspecified) | 6
O=C(Cn1cc([N+](=O)[O-])cn1)Nc1ccc(Cn2cc(Br)cn2)cc1 | 4

# Results, from the start:
smiles | Biofilm kill mix
C/C(N)=C(/C#N)C(=O)COC(=O)c1cc2c(s1)CCC(C)C2 (stereo unspecified) | 11
CC1(C)NC(=O)N(CCCCOc2ccccc2[N+](=O)[O-])C1=O | 7
CC1CCc2c(C(=O)OCC(=O)Nc3cccc(S(=O)(=O)N4CCCCCC4)c3)csc2C1 (stereo unspecified) | 6
O=C(Cn1cc([N+](=O)[O-])cn1)Nc1ccc(Cn2cc(Br)cn2)cc1 | 4
CC(=O)N1CCN(C(=O)COc2ccc(N(C)S(=O)(=O)c3cccs3)cc2)CC1 | 19
c1ccc(-n2nnnc2SCc2cccc(CSc3nnnn3-c3ccccc3)n2)cc1 | 6
Cc1ccccc1N(CC(=O)NCCSc1ccccn1)S(=O)(=O)c1ccccc1 | -6
Cc1ccc2c(Cl)c(C(=O)Nc3cccnc3)sc2c1 | 21
Cc1ccc(NC(=S)N(CCCN2CCCC2)Cc2cccn2Cc2ccc(Cl)cc2)cc1Cl | 19
O=c1[nH]c(-[n+]2ccccc2)c(/C=N/N=C(\[O-])c2ccccc2)s1 | -33
CC(NC(=O)Cn1cc(C(F)(F)F)ccc1=O)c1ccc(F)cc1 (stereo unspecified) | 4
Cc1cc(C)cc(OCC(=O)O/N=C(\N)c2ccccc2Cl)c1 | 22
CC1CCCN(CCOCCOc2ccc(Br)cc2Cl)C1 (stereo unspecified) | 24
COc1ccc(CNCCC(c2ccccc2)C2CCOC(C)(C)C2)cc1 (stereo unspecified) | 1
O=C(NCCO)/C(=C\c1cccs1)NC(=O)c1cccs1 | 23
COC(c1ccccc1)c1nnc(CCC(=O)N2CCCCCCC2)o1 (stereo unspecified) | 19
CCCCCCCCCCOC(=O)c1csc2nnsc12 | 13
CCOC(=O)NN1C(=O)c2ccccc2NC1c1ccccc1F (stereo unspecified) | 11
O=C(/C=C/c1ccc(Cl)cc1)N(Cc1cccs1)C1CCS(=O)(=O)C1 (stereo unspecified) | 9
Cc1[nH][nH]c(=O)c1C(c1ccccc1[N+](=O)[O-])C(C#N)C#N (stereo unspecified) | -9
C#CCn1cc(/C=N/Nc2nc3ccccc3[nH]2)c2ccccc21 | 21
CC(C)CCNC(=O)NC(=O)COC(=O)CNC(=O)C1CCCCC1 | 11
CCN(CC)CCOC(=O)c1ccc(NC(=O)/C=C/c2cccs2)cc1 | 8
O=c1cc(CSc2ccccc2)nc(-c2ccccc2)[nH]1 | 23
CCOC(=O)c1cc(C(=O)c2cc(Br)ccc2O)coc1=N | 6

# Rewritten field by field: entries from further up.
> CCOC(=O)c1cc(C(=O)c2cc(Br)ccc2O)coc1=N
  Biofilm kill mix: 6
> C/C(N)=C(/C#N)C(=O)COC(=O)c1cc2c(s1)CCC(C)C2 (stereo unspecified)
  Biofilm kill mix: 11

# Additional structures follow:
smiles | Biofilm kill mix
S=C(c1ccccc1)N1CCN(C(=S)c2ccccc2)CC1 | 4
CCCN(Cc1ccccc1)C(=S)Nc1ccc(C(C)=O)cc1 | -2
COC(=O)CCC(=O)N1CCCC(CNS(=O)(=O)c2ccc(OC)cc2)C1 (stereo unspecified) | 6
Cc1occc1C(=O)NNC(=O)c1ccccc1C(=O)O | 5
CC1C2=C(CC(C)(C)CC2=O)NC2=C1C(=O)CC(C)(C)C2 | 10
COC(=O)c1ccccc1N=Nc1c(C)[nH][nH]c1=O | 16
COc1ccc(Cl)cc1-c1nc(N)nc(NC2CCCCC2)n1 | 7
COc1cc(C(=O)O)nc(OC)n1 | -1
COC(=O)c1cc(NC(=O)c2cc(C(C)(C)C)nn2Cc2ccc(F)cc2)ccc1N1CCOCC1 | 20
Cc1cccc(NC(=O)CCC(=O)N/N=C/c2ccncc2)c1 | 16
Cc1cccc(-c2n[nH]c(=S)n2C)c1 | 15
O=C(CCl)Nc1cc(S(=O)(=O)N2CCOCC2)ccc1N1CCOCC1 | 10
C=CCNC(=O)c1cc2c(=O)c3ccccc3oc2nc1C | 10
Cc1cc(=O)oc2cc(OC(C)C(=O)NCC3CCCO3)ccc12 (stereo unspecified) | 15
COc1ccccc1CN1CCNC(=O)C1CC(=O)NCc1c(C)n[nH]c1C (stereo unspecified) | 25
CCc1ccc([C@@H]2C[C@H]3CN(Cc4ccccc4OC)C(=O)[C@]34CCCN24)cc1 | -5
Cc1ccc(Cl)c(OC(=O)c2nn(C(C)C)c(=O)c3ccccc23)c1 | 20
CCC[C@@H]1C[C@@H](C(=O)N[C@@H](C2O[C@H](SC)[C@H](O)[C@@H](O)[C@H]2O)[C@H](C)Cl)N(C)C1 (stereo partly specified) | -7
O=C(COC(=O)c1ccc(-c2ccc([N+](=O)[O-])cc2)o1)NC(=O)NC1CCCCC1 | 6
O=C(NCc1ccco1)C(=O)NCC1OCCN1S(=O)(=O)c1ccc(Cl)cc1 (stereo unspecified) | 13
Cc1[nH]n(-c2ccc([N+](=O)[O-])cc2)c(=O)c1C=NCCc1ccc(S(N)(=O)=O)cc1 | 21
CCn1c(NC(=O)C2CCCCC2)nc2ccccc21 | 18
CCSc1nnc(-c2cc(Br)ccc2N=Cc2c(C)[nH]n(-c3ccccc3)c2=O)c(=O)[nH]1 | 4
CCCC(=O)Nc1ccc(C(N)=O)cc1 | 22
O=C(NCc1ccc(F)cc1)c1ccc(CNc2c(N3CCOCC3)c(=O)c2=O)cc1 | 24

# The listing continues.
smiles | Biofilm kill mix
O=C(CN1C2=NCCN2c2ccccc21)c1ccc(Br)s1 | 9
CC1OC(Oc2ccc3ccc(=O)oc3c2-c2c(O)ccc3cc(Oc4ccc5ccc(=O)oc5c4)c(=O)oc23)C(O)C(O)C1O (stereo unspecified) | 8
O=c1c(Cl)c(O)c2cccc3c4ccccc4n1c23 | -2
COc1ccccc1C(=O)C1CCCN(C(=O)Nc2ccccc2F)C1 (stereo unspecified) | 14
Fc1ccc(-c2onc3ccc(C4OCCO4)cc23)cc1 | 12
O=C(Cc1ccccc1)Nc1nnc(-c2cccc([N+](=O)[O-])c2)s1 | 23
O=C(NNC(=S)NC1CCCCC1)c1sc2ccccc2c1Cl | -5
COc1ccc(-c2[nH]ncc2CN(C)Cc2cccnc2)c(F)c1 | 30
CCCNc1nc(C)cc(-c2cc(-c3ccccc3)on2)n1 | 16
CCSC1=NCCN1S(=O)(=O)c1ccc(Cl)cc1 | -3
CN(C)c1ccc(C2CC(c3cccc(NS(C)(=O)=O)c3)=NN2C(=O)c2ccccc2)cc1 (stereo unspecified) | 7
CC(C)N1C(=O)NC2(c3ccccc3)N(C)C(=O)N(C)C12c1ccccc1 (stereo unspecified) | 9
COc1cc(OC)nc(Oc2ccc(NC(C)=O)cc2)n1 | 12
O/N=C(\c1ccccn1)C1CC1c1ccccc1 (stereo unspecified) | 10
Cn1[nH]c(C(F)(F)F)c(C=Nc2ccc(Cl)cc2)c1=O | 6
CCn1c(=O)c(C(=O)CN(C)Cc2ccc(F)cc2)c(N)n(Cc2ccccc2)c1=O | 16
CCOC(=O)C1=C(C)N=c2s/c(=C\c3ccc(OCC(=O)O)cc3)c(=O)n2C1c1ccc(OC(C)C)cc1 (stereo unspecified) | 8
COc1ccc(NC(=O)CCCn2c(=O)c3sccc3n(Cc3ccccc3)c2=O)cc1 | 2
CCCCOC(=O)Nc1ccc(S(=O)(=O)Nc2ncccn2)cc1 | 16
COCCCNC(=O)c1c(N)n(-c2ccccc2)c2nc3ccccc3nc12 | 28
N#Cc1cc(NCC2CCCO2)c([N+](=O)[O-])cc1C#N (stereo unspecified) | 1
Cc1ccccc1CN1C[C@@H]2C[C@@H](c3cn[nH]c3-c3ccccc3)N3CCC[C@@]23C1=O | 11
CSc1ccc(/C=N/NC(=O)CN2CCN(Cc3ccccc3Cl)CC2)cc1 | 13
O=C(/C=C/c1ccccc1Cl)Nc1ccccc1 | 9
Cn1c(=O)[nH]c(=O)c2c1nc(N1CCCCC1)n2CCCSc1nnnn1-c1ccccc1 | 17

# 4 records picked at random from those above, as already listed:
smiles | Biofilm kill mix
O=C(Cn1cc([N+](=O)[O-])cn1)Nc1ccc(Cn2cc(Br)cn2)cc1 | 4
COC(=O)c1ccccc1N=Nc1c(C)[nH][nH]c1=O | 16
O=c1cc(CSc2ccccc2)nc(-c2ccccc2)[nH]1 | 23
Fc1ccc(-c2onc3ccc(C4OCCO4)cc23)cc1 | 12

# Remaining list, next part:
smiles | Biofilm kill mix
O=C(CSc1ccc(-c2ccc(F)cc2)nn1)N1CCOCC1 | -1
CCOC(=O)C1CCN(C(=S)Nc2ccc(CC)cc2)CC1 | 4
COc1ccc(C)cc1NC(=O)C(OC(=O)c1cccc(S(=O)(=O)N(C)c2ccccc2)c1)c1ccccc1 (stereo unspecified) | 8
CC1(C)OC(=O)N(CC(=O)Nc2cccc(C(F)(F)F)c2)C1(C)O (stereo unspecified) | 18
COc1ccc(C(=O)NNC(=O)CSc2nnc(COc3ccccc3OC)n2C)cc1 | 22
Cn1cc(/C=N\NC(=O)c2cccs2)c2ccccc21 | 1
CN(C)c1ccc(N=Cc2nc(-c3ccccc3)oc2OC(=O)c2cccc(Br)c2)cc1 | 17
O=C(c1cccs1)N1CCN(c2ncc(Br)cn2)CC1 | 10
CN(C)C(CNC(=S)Nc1cccc(Cl)c1)c1ccccc1 (stereo unspecified) | 5
OC1CCNC(=S)N1c1ccccc1 (stereo unspecified) | 10
O=C(NNc1c2ccccc2nc2ccccc12)c1cccc(O)c1 | 25
CCOc1ccc(C2=NNC(c3cccnc3)=Nc3ccc(OC)cc32)cc1 | 19
CC1(C)OC1COc1c2ccoc2cc2oc(=O)ccc12 (stereo unspecified) | 13
CCc1cccc(C)c1NC(=O)N(C)C1CCCCC1 | 17
Cn1c(=O)c2[nH]c(N=NNc3ccccc3F)nc2n(C)c1=O | 18
COc1ccc(NC(=S)NCCC2=CCCCC2)cc1OC | 9
Cn1c(-c2cnn(-c3ccccc3)c2-n2cccc2)n[nH]c1=S | 24
CCn1c(SCC(=O)Nc2ccccc2)nc2c1c(=O)n(C)c(=O)n2C | 11
CCC(C)(C)c1ccc(OCCCC[n+]2ccc(C)cc2)c(C(C)(C)CC)c1 | 12
C/C(Cn1cnc([N+](=O)[O-])n1)=N\NC(=O)c1cccnc1 | 6
Cc1[nH]n(-c2ccccc2)c(=O)c1/C=N/N(c1ccccc1)c1ccccc1 | 9
NNC(=O)CSc1nc(-c2ccccc2)cn1-c1ccccc1 | 11
Cc1cccn2c(NCc3ccc4c(c3)OCO4)c(-c3ccc(O)cc3)nc12 | 5
Cc1ccc(-c2n[nH]c(=S)n2/N=C/c2ccc(C)o2)cc1 | 8
CCOc1ccccc1Nc1cc(C)nc2nnnn12 | 9

# Continuation:
smiles | Biofilm kill mix
CC(=O)c1cnn(-c2ccc(Cl)c(Cl)c2Cl)c1C | 7
CC(C)c1ccc(C(=O)NCCCN2CCN(CCCNC(=O)c3ccc(C(C)C)cc3)CC2)cc1 | 15
CCOC(=O)CC(NS(=O)(=O)c1ccc(OC)c(OC)c1)c1cccc([N+](=O)[O-])c1 (stereo unspecified) | 8
CC(C(=O)NC1CC1)c1ncc(C(F)(F)F)cc1Cl (stereo unspecified) | 12
Cc1cccc(OCC(=O)Nc2ccc(N3CCCC3)cc2)c1C | 7
CC(c1ccon1)N(C)C(=O)CCc1nnc(C2(c3ccc(Cl)cc3)CCC2)o1 (stereo unspecified) | -1
O=c1cc(O)c(-c2ccc(Cl)c(Cl)c2)c(Cl)[nH]1 | 15
N#Cc1ccccc1NC(=O)c1cccc(COc2ccc(Cl)cc2Cl)c1 | 5
COc1cccc(NC(=O)CN(C)C(C)C(=O)Nc2ccc(S(=O)(=O)N3CCCC3)cc2)c1 (stereo unspecified) | 12
O=S(=O)(/N=C(\c1ccc(Cl)cc1)N1CCOCC1)c1ccccc1 | 6
O=C(Nc1ccccc1C(=O)NCc1ccccc1)c1ccccc1Br | 5
CCNC(=O)COc1cccc(C(=O)NCc2ccccc2)c1 | 9
CC(C)(C)c1ccc(-c2nc(O)c(CC(=O)O)s2)cc1 | 23
COc1cc(/C=N/Nc2nncn2/N=C/c2ccc(O)c(OC)c2)ccc1O | 20
O=C(c1nc2ccccn2c1CNCC1OCCc2ccccc21)N1CCOCC1 (stereo unspecified) | 14
CCOC(=O)CN(C(=O)CSc1nnc(Cc2ccccc2)n1-c1ccc(C)cc1)c1ccccc1 | 7
COc1ccc(CCN2C(=O)CC(NNC(=O)c3ccccc3Br)C2=O)cc1 (stereo unspecified) | 7
O=[N+]([O-])c1c(-c2cn[nH]c2)n[nH]c1-c1cn[nH]c1 | 18
Cc1ccc2c(c1)Oc1ccc(NC(=O)CCl)cc1C(=O)N2 | -5
Cn1c(CCNC(=O)C2CCCCC2)nc2cc(NC(=O)c3cccs3)ccc21 | 6
O=C(CSc1ccccc1)Nc1cc(Cl)ccc1Oc1ccccc1 | -9
CSc1nn2c(C(F)(F)F)cc(C(F)(F)F)nc2c1C(=O)O | 6
COc1cccc(C(=O)Nc2cnn(C(C)C)c2)c1 | 35
CC(C)CC1=NN(C(=O)c2ccncc2)C(O)(C(F)(F)F)C1 (stereo unspecified) | 18
O=C(O)C1=C[C@H](c2ccc(C(F)(F)F)cc2)C[C@H](OCc2ccc(CO)cc2)O1 | 15
CC(C)CCN1CCN(Cc2cccn2-c2ccc(Cl)cn2)CC1CCO (stereo unspecified) | 14
COC(=O)/C=C(\Oc1ccccc1)C1(O)CCCCC1 | 19
S=C1NC2(CCCCC2)Cc2ccccc21 | 18

# Screening data: PubChem, PCMD
